Screening results from PubChem BioAssay.
RE007 growth inh: less growth of the S. pombe RE007 Vpr strain. S. pombe RE007 Vpr strain, BacTiter-Glo ATP luminescence, 24 h; control for the full effect not named in the record. Potency, µM (series often up to 92.2 µM), for the others: at the top dose activity change, negative = less growth. actives 0.21% (n = 360,000). AID 651644; active = well fitted falling curve with a large enough effect; inconclusive = small, poorly fitted or top-dose-only effect; inactive = no such curve, though single readings can be large or run the other way;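 also: % is scaled to controls: 0 for no effect and ±100 for the full control effect; nearly all actives have a fitted effect of over 50% in size; the assay follows cell death caused by Vpr and the record does not say whether a fall means rescue or toxicity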
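Fission yeast RE007 carrying one integrated HIV-1 vpr copy, seeded at OD 0.01 in PMG+AL medium with 23 nL pinned compound. Grown 24 h at 30 degrees; viability read by BacTiter-Glo luminescence after 5 min.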
2A StopGo: FMDV 2A StopGo reporter, luciferase signal; human cells with a luciferase reporter of 2A StopGo recoding; control for the full effect not named in the record; Potency, µM (doses to about 57.9 µM), for inactives: top-dose signal change, negative = less light; actives 1.2% (n = 410,000); AID 1159524; active = well fitted falling curve with a large enough effect; inconclusive = small, poorly fitted or top-dose-only effect; inactive = no such curve, though single readings can be large or run the other way; tested in HEK293T cells; also: % is scaled to controls: 0 for no effect and ±100 for the full control effect; nearly all actives have a fitted effect of over 45% in size; luciferase light after 4 h
Cruzain Triton: blocks cruzain activity in presence of Triton detergent; P25779; purified cruzain, Z-FR-AMC fluorescence, 0.01% Triton; Potency, µM, for inactives: max response, negative = inhibition, most hits filed as inhibitors; actives 0.43% (n = 200,000); AID 1478;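 also: plate controls were neutral wells for no effect and buffer without enzyme for full effect; nearly all actives have a fitted effect of over 40% in size; top concentration of the series not given in the record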
Target sequence (P25779 123-467 limits assumed): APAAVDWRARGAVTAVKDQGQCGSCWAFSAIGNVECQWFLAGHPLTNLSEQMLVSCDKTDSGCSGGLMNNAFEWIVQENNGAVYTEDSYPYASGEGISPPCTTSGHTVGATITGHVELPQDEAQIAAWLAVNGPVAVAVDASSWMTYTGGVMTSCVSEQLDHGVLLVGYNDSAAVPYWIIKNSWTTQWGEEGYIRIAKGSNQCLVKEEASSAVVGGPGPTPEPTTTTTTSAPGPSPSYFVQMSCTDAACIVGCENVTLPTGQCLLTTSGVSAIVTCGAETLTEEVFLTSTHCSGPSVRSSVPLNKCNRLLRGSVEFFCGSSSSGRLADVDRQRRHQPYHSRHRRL
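Cruzain (1.5 nM) preincubated 15 min at RT with compound in 100 mM sodium acetate pH 5.5, 5 mM DTT, 0.01% Triton X-100. Reaction started with 2 uM Z-FR-AMC; AMC fluorescence (ex 360/em 450 nm) change over 60 s gave rate.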
Marburg entry inh: blocks Marburg virus binding to or entry into cells; Marburg virus pseudotyped entry inhibition, cell reporter; control for the full effect not named in the record; about a third of the inactives were read at about 46 µM; Potency, µM (titrated, usually from 37.8 µM), for the others: at the highest dose activity change, negative = inhibition, most hits filed as inhibitors; actives 1.8% (n = 300,000); AID 540276; active = well fitted inhibition curve with a large enough effect; inconclusive = small, poorly fitted or top-dose-only effect, or effect the other way; inactive = flat fitted curve, though single readings scatter; tested in HEK293 cells; about a fifth of its hits are not listed in these tables; also: % is scaled to controls: 0 for no effect and ±100 for the full control effect; luciferase read-out
NS1 function inh: blocks influenza NS1 protein function; Potency, µM (highest dose often 46.1 µM), without a hit: top-dose activity, positive = more growth; S. cerevisiae slowed by influenza A NS1, growth recovery by OD600; actives 0.4% (n = 270,000); active means well fitted rising curve with a large enough effect; inconclusive means small, poorly fitted or top-dose-only effect; inactive means no such curve, though single readings can be large or run the other way; also: nearly all actives have a fitted effect of over 50% in size
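S. cerevisiae expressing influenza A NS1, grown in glucose, washed, then diluted 1:100 into pH 6.0 -URA galactose medium with 23 nl compound. Growth recovery read as OD600; NS1-free strain serves as control.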
SARS PLpro yeast: blocks SARS-CoV papain-like protease in a yeast assay; Potency, µM (highest dose often 32.9 µM), inactives show at the top dose activity, positive = growth rescue; actives 0.19% (n = 330,000); S. cerevisiae expressing SARS-CoV PLpro, growth rescue; control for the full effect not named in the record; AID 485353; active means well fitted rising curve with a large enough effect; inconclusive means small, poorly fitted or top-dose-only effect; inactive means no such curve, though single readings can be large or run the other way; also: 0% is about no effect; nearly all actives have a fitted effect of over 55% in size; growth read by luminescence after 48 h
Cruzain inh noDet: inhibitors of Trypanosoma cruzi cruzain without detergent; P25779; purified cruzain, Z-FR-AMC fluorescence, no detergent; Potency, µM, without a hit: max response, negative = inhibition, most hits filed as inhibitors; actives 2.3% (n = 200,000);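 also: plate controls were enzyme without inhibitor for no effect and buffer without enzyme for full effect; nearly all actives have a fitted effect of over 40% in size; top concentration of the series not given in the record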
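Purified cruzain at 1.5 nM, pre-incubated 15 min with compound at room temperature in 100 mM sodium acetate pH 5.5, 5 mM DTT, 0.00005% Triton X-100. Reaction started with 2 uM Z-FR-AMC; AMC fluorescence increase over 60 s gives rate.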
LASV entry inh: Lassa virus entry inhibition; Potency, µM (highest dose often 37.9 µM), for the others: at the highest dose activity change, negative = inhibition, usual class: inhibitors; actives 1.2% (n = 300,000); Lassa virus pseudotype entry inhibition, cell reporter; control for the full effect not named in the record; active means well fitted inhibition curve with a large enough effect; inconclusive means small, poorly fitted or top-dose-only effect, or effect the other way; inactive means flat fitted curve, though single readings scatter; tested in HEK293 cells; also: % is scaled to controls: 0 for no effect and ±100 for the full control effect; nearly all actives have a fitted effect of over 50% in size; luciferase read-out
An asterisk follows results filed as active; ? = inconclusive; nt = no result given; [ ] = another dose, or the depositor's remark. Unless noted, calls follow the shape of the dose curve; as a rule, active = well fitted curve in the direction sought with a large enough effect; inconclusive = small, poorly fitted or top-dose-only effect, or another doubt; inactive = no such curve, though single readings can be large; an effect the other way counts as inactive or inconclusive. Potency is read from the fitted curve at half-maximal effect. The order is random; overall some 4.7% were active at least once.

SMILES | RE007 growth inh | 2A StopGo | Cruzain Triton | Marburg entry inh | NS1 function inh | SARS PLpro yeast | Cruzain inh noDet | LASV entry inh
CCN(CCO)c1ncnc2c1sc1nc(CC(C)C)c3c(c12)CC(C)(C)OC3 | 1% | -14% | -5.7% | -19% | 11% | -2% | ? | 2%
COc1ccc(OC)c(C(=O)COC(=O)c2ccc(C)o2)c1 | -20% | 24% | 2.1% | -10% | -67% | 1% | 10% | 8%
CCOC(=O)c1c(-c2ccc(C)cc2)csc1NC(=O)c1cccc(N2C(=O)CCC2=O)c1 | -13% | 0% | -10% | 5% | 6% | -4% | ? | 4%
CCCc1ccc(O)c(N=Cc2cc(Br)cc(OCC)c2O)c1 | ? | 6% | nt | ? | nt | 7% | nt | ?
CN1C(=O)[C@H]2[C@@H](/C=C/c3ccccc3)N3C(=O)CN(CCO)C(=O)[C@@]3(Cc3ccccc3)[C@H]2C1=O | 2% | -10% | nt | nt | -4% | -1% | nt | nt
COc1cc2c(cc1OC)C(C)N(C(=O)c1ccc(C)o1)CC2 (stereo not drawn) | 0% | -16% | nt | ? | 3% | 1% | nt | -17%[46.1 µM]
COc1ccc(NC(=O)C2C3C=CC(O3)C2C(=O)NCc2cccnc2)cc1 (stereo not drawn) | 2% | -16% | 7.0% | -11% | 5% | -11% | -1% | 2%
O=C(COC(=O)c1ccc(Sc2ccccc2)c([N+](=O)[O-])c1)NC1CCCc2ccccc21 (stereo not drawn) | 13% | -13% | 1.7% | -14%[46.1 µM] | 9% | 16% | 13µM* | -14%
Nc1ccc(S(=O)(=O)Nc2nccc(/C=C/c3cccc(Br)c3)n2)cc1 | -7% | -20% | nt | ? | 6% | -2% | nt | ?
CCc1cc2c(cc3c(=O)n(CC(=O)N4CCN(c5ccccn5)CC4)nc(CC)n32)s1 | -2% | nt | -12% | ? | -79% | -4% | 13% | -9%
CCNc1nc(N)c(C(=C(C#N)C#N)c2ccccc2)s1 | 15% | ? | -0.9% | ? | 7% | -8% | 0% | ?
O=C(Nc1ccc(Cl)c(S(=O)(=O)N2CCOCC2)c1)c1ccc(Cl)nc1 | 28% | 18µM* | nt | ? | nt | 2% | nt | ?
OC1(c2cccc(C(F)(F)F)c2)CCN(Cc2nc(-c3cnccn3)no2)CC1 | 10% | -24% | nt | nt | -2% | 0% | nt | nt
COc1cccc(N(CC(=O)NC2CCCCC2)C(=O)CCC(=O)Nc2nc(C)cs2)c1 | 1% | 6% | nt | -25%[46.1 µM] | -1% | 2% | nt | 17%
O=C(Nc1ccc(-c2nc3ccccc3s2)c(O)c1)C1=COCCO1 | -15% | -10% | 16µM* | ? | 9% | 14% | ? | ?
CCOc1ccc(-c2c(C)nn3c(C)c(C(=O)NCC(C)c4ccccc4)cnc23)cc1OCC (stereo not drawn) | nt | -9% | -7.8% | nt | nt | nt | ? | 17%[46.1 µM]
CCc1ccc(NC(=O)c2cc3c(C)nc4ccccc4c3o2)cc1 | -4% | ? | nt | ? | nt | -1% | nt | ?
O=C(O)C1CCN1C1CCCCC1 (stereo not drawn) | 8% | -15% | 3.5% | 3% | 6% | 4% | 6% | -2%
COc1cc(S(=O)(=O)N2CCCC2)c(C)cc1C | 17% | 8% | nt | ? | nt | 0% | nt | -7%
O=c1[nH]cnc(O)c1C(c1ccc(Br)cc1)c1c(O)nc[nH]c1=O | 5% | -13% | nt | nt | 2% | 0% | nt | nt
Cc1cc(-c2nn(-c3ccccc3F)cc2CN2CCN(c3ccccn3)CC2)c(C)s1 | -9% | -22% | nt | ? | -3% | 0% | nt | ?
COc1ccc2nc(SCC(=O)NCc3ccc4c(c3)OCO4)[nH]c2c1 | 10% | -16% | -28% | -12% | 4% | 11% | ? | 2%
COc1ccccc1N1CCN(CC(=O)c2ccc3ccn(C(C)=O)c3c2)CC1 | -1% | -12% | -10% | -3% | 2% | -9% | -21% | nt
Cc1ccc(C)c(N2CCN(CCCNC(=O)c3ccc4nc(N5CCCCC5)sc4c3)CC2)c1 | nt | -53% | -0.8% | ? | nt | nt | 8% | ?
CC(C)(C)NC(=O)CCN(/N=C/c1ccncc1)C1=NS(=O)(=O)c2ccccc21 | -6% | -4% | nt | ? | 1% | 7% | nt | -2%[46.1 µM]
S=C(NCCN1CCOCC1)N/N=C/c1cccs1 | 4% | -7% | nt | nt | 4% | 1% | nt | nt
COc1ccc(Cl)cc1C1CC(=O)Nc2cc3c(cc21)OCCO3 (stereo not drawn) | nt | -1% | -11% | ? | nt | nt | -7% | -35%[46.1 µM]
Cc1ccc(-n2sc3ccccc3c2=O)cc1S(=O)(=O)N1CCCCC1 | 16µM* | 5% | -0.4% | nt | -27% | -28% | ? | nt
CC(C)c1ccccc1NC(=O)COC(=O)Cc1cccc(C(F)(F)F)c1 | -1% | -21% | -7.1% | ? | -27% | 7% | 2% | -1%
COCCN(C(=O)c1ccc(-c2ccc(Cl)cc2)o1)c1c(N)n(Cc2ccccc2)c(=O)[nH]c1=O | -7% | -27% | nt | 5% | nt | -6% | nt | -14%
O=C(O)CCC(NC(=S)Nc1ccccc1)C(=O)O (stereo not drawn) | 1% | 5% | nt | 5%[46.1 µM] | 6% | 5% | nt | 14%
CCOC(=O)c1c(NC(=O)CSc2nnnn2C)sc(C)c1C | 0% | 6% | 3.5% | 24% | -51% | -7% | 20% | -2%
O=C(CCC(=O)OCc1ccc(Br)cc1)Nc1ccccc1 | -4% | 8% | -3.5% | -1% | -15% | -13% | -13% | 0%
COC(=O)c1c(NC(=O)C2SC(=NC3CCCCC3)C(C(N)=O)=C2N)sc2c1CCCC2 (stereo not drawn) | 4% | -7% | -2.9% | -1% | 11% | -9% | 7.9µM* | 11%
CCOC(=O)CNC(=O)CSc1cn(CC(=O)N2CCCCCC2)c2ccccc12 | nt | 2% | -5.3% | nt | nt | nt | -13% | -10%[46.1 µM]
Cc1ccc(C2C3=C(CC(C)(C)CC3=O)Nc3n[nH]c(C)c32)cc1 (stereo not drawn) | 25% | -10% | -5.7% | ? | 2% | 3% | 9% | 2%
CCOC(=O)C1(CCc2ccccc2)CCN(Cc2ccc(C(=O)OC)cc2)CC1 | -18% | ? | nt | nt | -36% | -5% | nt | nt
COc1ccc(N=C2SC(C(=O)O)CC(=O)N2Cc2ccc(OC)c(OC)c2)cc1 (stereo not drawn) | 1% | 21% | 5.1% | -3% | ? | 0% | ? | 1%
O=C(Cc1ccc([N+](=O)[O-])cc1)Oc1ccccc1 | -2% | -9% | nt | -1%[46.1 µM] | nt | nt | nt | 21%[46.1 µM]
CCn1cc(CN2CCC(n3nccc3NC(=O)Cc3ccccc3)CC2)cn1 | 15% | -27% | nt | 12% | 4% | -4% | nt | 6%
CC(C)(C)c1ccc(C(=O)Cn2nc(C(=O)O)c3ccccc3c2=O)cc1 | -22% | ? | nt | nt | 9% | 0% | nt | nt
COc1ccc(S(=O)(=O)N2CCCCC2)cc1NC(=O)c1ccccc1 | 4% | -18% | nt | 13%[46.1 µM] | nt | -2% | nt | 21%
NC(=O)C(=O)N/N=C/c1cccc(C(F)(F)F)c1 | 1% | 4% | nt | 3%[46.1 µM] | nt | -5% | nt | 19%
C=CCc1c(C)nc2c(-c3ccccc3)cnn2c1N1CCOCC1 | -6% | -9% | nt | ? | -2% | 1% | nt | 6%[46.1 µM]
C=CCOC(=O)C1=C(C)NC(SCC(=O)Nc2ccccc2)=C(C#N)C1c1ccco1 (stereo not drawn) | -1% | 4% | -6.1% | -13% | ? | 27% | -21% | -12%
Cc1nc2ccc(Cl)cn2c1C(=O)NN | -21% | 20% | nt | -6% | 3% | 0% | nt | ?
Cc1cc(Nc2ccc(Cl)cc2C)nc(-n2nc(C)cc2C)n1 | nt | -17% | 2.4% | nt | nt | nt | 1% | -2%[46.1 µM]
COc1cc(NC(=O)C(=O)NCCN2CCNCC2)c(OC)cc1Cl | 17% | 40%[activator] | nt | 1%[46.1 µM] | nt | 5% | nt | 19%
CCNc1nc(NC(C)CC)nc(ON=C(C)C)n1 (stereo not drawn) | 2% | -2% | nt | -6%[46.1 µM] | -3% | 1% | nt | 1%[46.1 µM]
O=C(Cc1ccc(O)cc1)NC1CCCCCC1 | ? | 49%[activator] | nt | ? | -2% | 1% | nt | -26%[46.1 µM]
COCCCNc1nc2nonc2nc1N1CCC(C(C)N2CCOCC2)CC1 (stereo not drawn) | 3% | -9% | nt | ? | -9% | 1% | nt | 5%
Cc1ccc(CCNC(=O)c2cc3sccc3n2Cc2ccc(C)cc2)cc1 | nt | -26% | -7.2% | ? | nt | nt | ? | 12%[46.1 µM]
COc1cc(-c2nnc(SCCOc3cc(C)cc(C)c3)o2)cc(OC)c1OC | nt | -13% | -4.2% | -3%[46.1 µM] | nt | nt | 30% | 19%[46.1 µM]
Cc1ccc(N(CC(=O)N/N=C/c2cccc(Br)c2)S(C)(=O)=O)cc1 | 12% | ? | -3.8% | 18% | 12% | -7% | 27% | -4%
O=C(CCN1C(=O)c2ccccc2C1=O)Nc1ccncc1 | -19% | 0% | 5.4% | 4% | 4% | 1% | -11% | -2%
Cn1c(=O)c2c(nc(CN3CCN(CCO)CC3)n2CCc2ccccc2)n(C)c1=O | 1% | -14% | nt | nt | -5% | 0% | nt | nt

Later entries
SMILES | RE007 growth inh | 2A StopGo | Cruzain Triton | Marburg entry inh | NS1 function inh | SARS PLpro yeast | Cruzain inh noDet | LASV entry inh
O=C(Nc1cc(S(=O)(=O)N2CCCC2)ccc1Cl)c1cc(F)c(F)c(F)c1F | 9% | 14% | nt | 7%[46.1 µM] | nt | -6% | nt | 0%[46.1 µM]
CCNS(=O)(=O)c1ccc2c3c(cccc13)C(=O)N2 | 0% | 78%[activator] | 1.2% | ? | 3% | -5% | -29% | -1%
CCc1nnc(SCc2nc(-c3ccc(OC)cc3)oc2C)c2cc3sccc3n12 | nt | 3% | -3.9% | nt | nt | nt | ? | 18%[46.1 µM]
O=C(CSc1ccccc1)N1CCc2c([nH]c3ccccc23)C1c1ccc(Cl)cc1 (stereo not drawn) | nt | -17% | 2.3% | nt | nt | nt | 13µM* | ?
